Mtb MbtI inh: MbtI salicylate synthase inhibition. purified MbtI enzyme, fluorescence intensity read-out. inhibition, %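 (about 17 µg/mL by stock and volumes)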. 100,000 tested, 0.89% active;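 active means above 50% in both replicates, above 80% if mildly self-fluorescent; inactive means the rest, strongly fluorescent compounds included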;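 further: 0% = mean of negative and 100% = mean of positive controls; one replicate is shown; some compounds called inactive have numbers as strong as hits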
Target sequence (P9WFX0 whole entry, looked up): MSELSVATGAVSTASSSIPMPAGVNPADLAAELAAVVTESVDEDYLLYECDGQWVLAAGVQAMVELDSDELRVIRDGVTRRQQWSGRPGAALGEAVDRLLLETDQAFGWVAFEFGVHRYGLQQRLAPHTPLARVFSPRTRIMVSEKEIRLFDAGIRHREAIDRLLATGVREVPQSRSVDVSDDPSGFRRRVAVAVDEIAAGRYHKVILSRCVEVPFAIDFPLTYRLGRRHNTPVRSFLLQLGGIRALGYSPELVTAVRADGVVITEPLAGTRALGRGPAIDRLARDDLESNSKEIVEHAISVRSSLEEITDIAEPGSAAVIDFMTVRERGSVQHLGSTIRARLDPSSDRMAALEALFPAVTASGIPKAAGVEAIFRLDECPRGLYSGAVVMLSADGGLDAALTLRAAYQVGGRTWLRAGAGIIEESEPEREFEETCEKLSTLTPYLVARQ
MenB inh: inhibitors of Mycobacterium tuberculosis MenB enzyme; AID 540299; MenB enzyme assay, absorbance read-out; some hits fall short of the stated cut; P9WNP5; inhibition, %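 (about 12 µg/mL by stock and volumes)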; 100,000 tested, 0.43% active;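 active means mean of two replicates above 30%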;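 further: 0% = no compound and 100% = wells with inactive enzyme; the first replicate is given; strong numbers were not always called active; inactives centre near -10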
Target sequence (P9WNP5 whole entry, looked up): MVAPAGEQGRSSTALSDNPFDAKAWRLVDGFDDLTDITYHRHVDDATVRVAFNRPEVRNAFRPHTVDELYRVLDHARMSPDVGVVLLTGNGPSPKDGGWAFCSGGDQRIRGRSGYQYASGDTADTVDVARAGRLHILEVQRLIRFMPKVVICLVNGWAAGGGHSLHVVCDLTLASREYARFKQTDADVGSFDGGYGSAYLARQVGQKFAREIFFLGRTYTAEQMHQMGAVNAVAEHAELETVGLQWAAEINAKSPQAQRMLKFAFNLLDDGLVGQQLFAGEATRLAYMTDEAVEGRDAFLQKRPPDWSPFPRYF
PV pol inh: inhibitors of poliovirus RNA polymerase binding and polymerization. poliovirus polymerase elongation, fluorescence polarization; active compounds read low. % elongation, % (compound at 16.7 µg/mL). 150,000 tested, 0.66% active; in the data active means % elongation below about 90%; further: some results filed as inactive read as strong as hits
PV pol inh intensity: further read-out of PV pol inh, marked with its call; % elongation; measured here: total intensity read-out; formula for this scale not given here;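 total fluorescence in place of polarization; lower means less elongation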
Starred values were filed as active, the others as inactive; · = no result given.

1) O=C(CN1CCN(c2ccccc2)CC1)NCc1ccccc1
2) O=C(O)c1ccc2c(c1)OCCCO2
3) CN1C(=O)c2ccccc2C(C(=O)N2CCCCC2)C1c1cccs1 (configuration not stated)
4) CCCNC(=O)CN1Cc2ccccc2C1=O
5) CC(C)(CO)NC(=O)c1ccc(C(C)(C)C)cc1
6) Cc1ccc(N(C(=O)c2ccc3c(c2)OCO3)C2C=CS(=O)(=O)C2)cc1 (configuration not stated)
7) CCn1c(CSc2nc3ccc(C)cc3[nH]2)nc2cc(S(=O)(=O)N(C)C)ccc21
8) COc1ccc(CCNC2CCCCC2C)cc1OC (configuration not stated)

| assay / entry | 1 | 2 | 3 | 4 | 5 | 6 | 7 | 8 |
| --- | --- | --- | --- | --- | --- | --- | --- | --- |
| Mtb MbtI inh | -11.8 | 2.6 | 2.7 | -13.4 | -7.5 | 4.4 | 1.7 | · |
| MenB inh | -24.6 | -8.7 | 7.9 | -3.6 | · | -9.7 | -40.7 | -21.3 |
| PV pol inh | 104.0 | 106.0 | 102.0 | 101.0 | 105.0 | 102.0 | 100.0 | 106.0 |
| PV pol inh intensity | 102.0 | 111.0 | 98.0 | 103.0 | 99.0 | 100.0 | 73.0 | 98.0 |

Limited to Mtb MbtI inh and PV pol inh, for six of the compounds above:
No.	SMILES	Mtb MbtI inh	PV pol inh
2	O=C(O)c1ccc2c(c1)OCCCO2	2.6	106.0
3	CN1C(=O)c2ccccc2C(C(=O)N2CCCCC2)C1c1cccs1 (configuration not stated)	2.7	102.0
4	CCCNC(=O)CN1Cc2ccccc2C1=O	-13.4	101.0
5	CC(C)(CO)NC(=O)c1ccc(C(C)(C)C)cc1	-7.5	105.0
6	Cc1ccc(N(C(=O)c2ccc3c(c2)OCO3)C2C=CS(=O)(=O)C2)cc1 (configuration not stated)	4.4	102.0
7	CCn1c(CSc2nc3ccc(C)cc3[nH]2)nc2cc(S(=O)(=O)N(C)C)ccc21	1.7	100.0

From compound 3 to 7, copied from above:
3) CN1C(=O)c2ccccc2C(C(=O)N2CCCCC2)C1c1cccs1 (configuration not stated)
4) CCCNC(=O)CN1Cc2ccccc2C1=O
5) CC(C)(CO)NC(=O)c1ccc(C(C)(C)C)cc1
6) Cc1ccc(N(C(=O)c2ccc3c(c2)OCO3)C2C=CS(=O)(=O)C2)cc1 (configuration not stated)
7) CCn1c(CSc2nc3ccc(C)cc3[nH]2)nc2cc(S(=O)(=O)N(C)C)ccc21

| assay / entry | 3 | 4 | 5 | 6 | 7 |
| --- | --- | --- | --- | --- | --- |
| Mtb MbtI inh | 2.7 | -13.4 | -7.5 | 4.4 | 1.7 |
| MenB inh | 7.9 | -3.6 | · | -9.7 | -40.7 |
| PV pol inh | 102.0 | 101.0 | 105.0 | 102.0 | 100.0 |
| PV pol inh intensity | 98.0 | 103.0 | 99.0 | 100.0 | 73.0 |

Continued.
9) COc1ccc(-c2c(-c3ccc(O)cc3O)n[nH]c2C)cc1OC
10) COc1c(O)cnn(C(C)(C)C)c1=O
11) O=C1c2ccccc2C(=O)N1COc1ccc(F)cc1Br
12) O=C(OCc1cc(Cl)ccc1OC(F)F)c1ccco1
13) O=C(Cn1cc(-c2ccccc2)nc1SCc1ccccc1)c1ccccc1
14) O=C(c1cc2ccccc2oc1=O)N1CCN(Cc2ccc(Cl)cc2)CC1
15) CC(OC(=O)c1ccc2ccccc2n1)C(=O)c1ccccc1 (configuration not stated)
16) O=C(NC(Cc1ccccc1)C(=O)O)c1ccco1 (configuration not stated)

| assay / entry | 9 | 10 | 11 | 12 | 13 | 14 | 15 | 16 |
| --- | --- | --- | --- | --- | --- | --- | --- | --- |
| Mtb MbtI inh | -20.7 | -11.1 | -4.4 | -11.2 | -3.5 | -10.3 | · | 2.0 |
| MenB inh | -16.6 | -10.8 | -20.1 | -31.5 | -21.8 | -23.2 | -21.1 | · |
| PV pol inh | 104.0 | 101.0 | 105.0 | 104.0 | 103.0 | 105.0 | 107.0 | 97.0 |
| PV pol inh intensity | 102.0 | 103.0 | 112.0 | 107.0 | 101.0 | 104.0 | 104.0 | 93.0 |

17) O=C(OCc1ccccc1)c1ccccc1
18) N#CCSc1ccccc1NC(=O)CN1CC=C(c2ccccc2)CC1
19) N/C(=N\c1nc2c(c(=O)[nH]1)CCC2)Nc1ccccc1C(F)(F)F
20) CCCCN(C)C(=O)Cc1c(C(=O)O)[nH]c2ccc(Cl)cc12
21) CCOc1ccc2[nH]c(=O)c(CN(CCOC)C(=O)NC3CCCCC3)cc2c1
22) CCSC1=NC2(CCCCC2)Nc2ccccc21
23) COc1cc(S(=O)(=O)N2CCCCCCC2)ccc1-n1cnnn1
24) CN(C)c1ccc(C2C=C(c3ccccc3)Nc3ncnn32)cc1 (configuration not stated)

| assay / entry | 17 | 18 | 19 | 20 | 21 | 22 | 23 | 24 |
| --- | --- | --- | --- | --- | --- | --- | --- | --- |
| Mtb MbtI inh | -17.2 | 11.1 | -6.1 | 11.7 | 88.7 | 19.0 | 17.6 | -191.8 |
| MenB inh | -3.8 | -26.6 | -6.2 | -18.4 | -16.6 | -6.4 | 3.0 | -24.0 |
| PV pol inh | 103.0 | 45.0 | 101.0 | 101.0 | 100.0 | 100.0 | 103.0 | 108.0 |
| PV pol inh intensity | 101.0 | 243.0 | 105.0 | 95.0 | 101.0 | 103.0 | 104.0 | 108.0 |

Reprinted at random: 2 compounds from above.
19) N/C(=N\c1nc2c(c(=O)[nH]1)CCC2)Nc1ccccc1C(F)(F)F
22) CCSC1=NC2(CCCCC2)Nc2ccccc21

| assay / entry | 19 | 22 |
| --- | --- | --- |
| Mtb MbtI inh | -6.1 | 19.0 |
| MenB inh | -6.2 | -6.4 |
| PV pol inh | 101.0 | 100.0 |
| PV pol inh intensity | 105.0 | 103.0 |

(list continues)
25) CCOc1ccc(N(C)Cc2cc(=O)oc3ccc(OC)cc23)cc1
26) Cc1noc(C)c1COC(=O)c1ccc2[nH]c3c(c2c1)CCCC3
27) Clc1cc(Cl)cc(Oc2nc(-c3ccccc3)ns2)c1
28) O=C(NCN1CCN(CNC(=O)c2ccccc2)CC1)c1ccccc1
29) Oc1c(CN2CCOCC2)ccc(CN2CCOCC2)c1O
30) CC(C(=O)NCc1ccccc1)N1CCc2ccccc2C1 (configuration not stated)
31) COc1ccc(-c2nn(CN3CCC(C(N)=O)CC3)c(=S)n2-c2ccccc2)cc1OC
32) COc1cc(Cl)c(C)cc1NCC(=O)N1CCOCC1

| assay / entry | 25 | 26 | 27 | 28 | 29 | 30 | 31 | 32 |
| --- | --- | --- | --- | --- | --- | --- | --- | --- |
| Mtb MbtI inh | -10.8 | 97.2 | -12.7 | -10.4 | 4.1 | -2.6 | -2.4 | -17.7 |
| MenB inh | -30.2 | -20.6 | -7.4 | -8.3 | -4.8 | -9.7 | -14.2 | -2.4 |
| PV pol inh | 104.0 | 107.0 | 97.0 | 102.0 | 103.0 | 102.0 | 101.0 | 101.0 |
| PV pol inh intensity | 108.0 | 113.0 | 102.0 | 105.0 | 97.0 | 107.0 | 101.0 | 105.0 |

33) O=C(O)c1cc(C23CC4CC(CC(C4)C2)C3)ccc1O
34) COc1ccc(OCc2nc(N)nc(Nc3ccc(C)cc3)n2)cc1
35) CCC(C)NC(=O)c1ccccc1NC(=O)C1=CSCCO1 (configuration not stated)
36) CCOC(=O)c1[nH]c(=O)[nH]c1COC(=O)c1cc2ccccc2o1
37) C=CCNC(=O)c1ccccc1NC(=O)CC
38) CCOC(=O)C1CCCN(C(=O)Cn2nc(C)n3nc(-c4ccc(OC)cc4)cc3c2=O)C1 (configuration not stated)
39) Cc1ccccc1C1C(C#N)=C(N)NC(S)=C1C#N (configuration not stated)
40) CCOC(=O)N1CCN(C(=S)Nc2ccc(OC(F)F)cc2)CC1

| assay / entry | 33 | 34 | 35 | 36 | 37 | 38 | 39 | 40 |
| --- | --- | --- | --- | --- | --- | --- | --- | --- |
| Mtb MbtI inh | 91.4 | · | 3.5 | 0.4 | -17.4 | 47.5 | -18.6 | -7.9 |
| MenB inh | 3.6 | -21.2 | -20.1 | -0.5 | -21.2 | -14.4 | -12.1 | -7.8 |
| PV pol inh | 100.0 | 108.0 | 103.0 | 101.0 | 108.0 | 101.0 | 101.0 | 111.0 |
| PV pol inh intensity | 100.0 | 111.0 | 101.0 | 99.0 | 103.0 | 100.0 | 105.0 | 111.0 |

41) CSc1ccc(C2N=C(c3ccccc3)NO2)cc1 (configuration not stated)
42) CNCc1ccc(C)cc1C
43) O=c1cc(O)n(Cc2ccco2)c(=S)[nH]1
44) O=C(NCCCSc1ccccn1)Nc1nccs1
45) c1ccc2nc3c(nc2c1)oc1ccccc13
46) O=C(O)Cc1cc2c(cc1Br)OCCO2
47) CC(C)NC(=O)c1cccc2sc(N3CCCc4ccccc43)nc12
48) CCc1ccc2c(CC(=O)N3CCN(S(=O)(=O)c4ccc5c(c4)OCCO5)CC3)coc2c1

| assay / entry | 41 | 42 | 43 | 44 | 45 | 46 | 47 | 48 |
| --- | --- | --- | --- | --- | --- | --- | --- | --- |
| Mtb MbtI inh | 6.2 | -1.6 | -20.2 | 6.7 | -19.9 | 9.2 | -3.0 | 1.6 |
| MenB inh | -3.7 | 7.7 | -150.8 | -7.3 | -7.9 | -21.0 | 1.4 | -31.5 |
| PV pol inh | 98.0 | 101.0 | 96.0 | 105.0 | 100.0 | 104.0 | 103.0 | 106.0 |
| PV pol inh intensity | 104.0 | 102.0 | 88.0 | 101.0 | 100.0 | 109.0 | 104.0 | 102.0 |

49) Clc1ccc2c(Sc3nncn3-c3ccccc3)ccnc2c1
50) CCc1c(O)c(Cc2ccccc2)c(=O)n(-c2nccs2)c1-c1ccccc1
51) COc1ccc(N2C(=O)CC(Cc3ccccc3)C2=O)cc1 (configuration not stated)
52) NC(=O)NC(=O)CSc1n[nH]c(-c2cccs2)n1

| assay / entry | 49 | 50 | 51 | 52 |
| --- | --- | --- | --- | --- |
| Mtb MbtI inh | 8.9 | -4.0 | -9.2 | 86.8 |
| MenB inh | 0.1 | 10.1 | -20.4 | -22.1 |
| PV pol inh | 92.0 | 112.0 | 102.0 | 100.0 |
| PV pol inh intensity | 89.0 | 111.0 | 108.0 | 97.0 |

Bioassay records (PubChem)
